Assay outcomes deposited in PubChem by National Center for Advancing Translational Sciences (NCATS).
StopGo RLuc: FMDV 2A StopGo reporter, Renilla signal | HEK cells with a luciferase reporter of 2A StopGo recoding | Potency, µM (top dose mostly 57.5 µM), for the others: at the highest dose signal change, negative = less light | 120,000 tested, 0.32% active; active means well fitted falling curve with a large enough effect; inconclusive means small, poorly fitted or top-dose-only effect; inactive means no such curve, though single readings can be large or run the other way; further: nearly all actives have a fitted effect of over 55% in size; overnight with compound
2A firefly: lowers the firefly signal of an FMDV 2A StopGo reporter. Potency, µM (series often up to 57.5 µM), for inactives: at the highest dose signal change, negative = less light. 120,000 tested, 0.23% active. HEK cells with a luciferase reporter of 2A StopGo recoding; active = well fitted falling curve with a large enough effect; inconclusive = small, poorly fitted or top-dose-only effect; inactive = no such curve, though single readings can be large or run the other way; further: nearly all actives have a fitted effect of over 60% in size; overnight with compound
* marks the source's active call; other numbers are inactive results; ? = inconclusive; & = joins results of further samples; [ ] = another dose, or the depositor's remark. On the % scale 0 is the no-effect control and ±100 the full control effect; potency means the concentration at half of the fitted maximal effect. Some of the compounds tested (hit frequency here may not be typical).

SMILES	StopGo RLuc	2A firefly
Cc1ccc(-n2ncc(C(=O)N3CCN(c4ccccn4)CC3)c2C2CCN(C(=O)OC(C)(C)C)CC2)cc1	-8.8%	-16.6%
Cc1cccc(NC(=O)C2CCN(c3nnc(C)c4c(C)n(-c5ccccc5)nc34)CC2)c1C	-6.5%	-3.5%
O=C(Nc1ccc(Br)cc1)C1=C(c2ccccc2)SCCO1	17.8%	1.4%
Cc1ccc(S(=O)(=O)NCc2nnnn2-c2ccc(C)c(C)c2)cc1	37.9%[activator]	0.0%
O=C(CC1CCCC1)OCC(=O)c1ccc(Cl)cc1Cl	-3.3%[1.06 µM]	16.6%
O=C(Nc1ccc(F)c(F)c1)c1cc(S(=O)(=O)NCc2ccc3c(c2)OCO3)ccc1F	24.4%	-16.4%
Cc1c(C(=O)OC2CCCCCC2)[nH]c2c1C(=O)CC(c1ccccc1Cl)C2 (centres undefined)	0.6%	-8.6%
CC(c1ccc(Cl)cc1Cl)N(C)Cc1nc2ccccc2o1 (centres undefined)	26.6%	73.6%[activator]
Cc1cccc(-c2cccc3c4c([nH]c23)[C@@H]2C[C@H](N(C)C(=O)Nc3ccccc3)[C@H]([C@H](C)O)CN2CC4)c1	2.6%	8.0%
Cc1nnc(NC(=O)NCC(C)(C)N2CCN(C)CC2)s1	-6.6%	0.2%
COc1ccc(NC(=O)Cc2nc(-c3ccccc3)oc2C)c(OC)c1	-11.2%	-6.7%
CCCn1c(=O)n(-c2cc(Cl)c(OC)cc2OC)c(=O)c2c3c(sc21)CN(C(C)=O)CC3	135.5%[activator]	20.8%
CC(C)c1ccc2oc(=O)cc(CN3CCC4(CC3)OCCO4)c2c1	-1.4%	-10.2%
O=C(Nc1cccc(Cl)c1)c1n[nH]c(=O)c2ccccc12	-13.0%	64.5%[activator]
CCc1ccc(N2CCn3c2nc2c3c(=O)n(Cc3c(F)cccc3Cl)c(=O)n2C)cc1	4.5%	-2.2%
CCC(C(=O)OCCN(CC)CC)c1ccccc1 (centres undefined)	-9.4%	-16.0%
O=C(Nc1cccc(Cl)c1)C1CC2CCCC(C1)C2=O (centres undefined)	-2.7%	23.8%
Nc1cccc(OCC(=O)O)c1	3.5%	-2.4%
N#Cc1cn(C2CC2)c(=O)n(Cc2coc(-c3cccc(Cl)c3)n2)c1=O	-10.6%	-10.1%
CCOc1ccc(N(C)S(=O)(=O)c2cc(-c3cc(C)no3)ccc2OC)cc1	31.7%&23.0%[activator]	-25.4%&0.0%
O=C(/C=C/Nc1ccc(OC(F)(F)F)cc1)c1ccc(Br)cc1	9.4%	0.0%
CC(C)NC(=O)CNC(=O)CCc1ncc(-c2ccc(F)cc2F)o1	4.6%	71.5%[activator]
COc1ccc(-c2ocnc2C(=O)Nc2ccc(F)cc2)cc1	-4.0%	11.6%
Cc1ccc(Cl)cc1N1CCN(C(=O)CCc2nnc3n(C)c(=O)c4ccccc4n23)CC1	-18.1%	0.0%
Cc1ccc(-c2nc(CS(=O)CC(=O)N3CCN(c4ccccc4)CC3)c(C)o2)cc1 (centres undefined)	9.7%	18.1%

Five compounds from above, ordered by formula weight, rising.
SMILES	StopGo RLuc	2A firefly
Nc1cccc(OCC(=O)O)c1	3.5%	-2.4%
COc1ccc(-c2ocnc2C(=O)Nc2ccc(F)cc2)cc1	-4.0%	11.6%
CC(C)NC(=O)CNC(=O)CCc1ncc(-c2ccc(F)cc2F)o1	4.6%	71.5%[activator]
COc1ccc(NC(=O)Cc2nc(-c3ccccc3)oc2C)c(OC)c1	-11.2%	-6.7%
Cc1ccc(S(=O)(=O)NCc2nnnn2-c2ccc(C)c(C)c2)cc1	37.9%[activator]	0.0%

(continued)
SMILES	StopGo RLuc	2A firefly
Cc1ccccc1-n1ncc2c1NC(=O)CC21C(=O)N(CC(N)=O)c2c(C)cccc21 (centres undefined)	-9.4%	-8.0%
CC(=O)Nc1ccccc1OCc1cc(=O)n2c3c(sc2n1)CCCC3	-9.8%	-13.7%
O=C(CSc1nccn1Cc1ccc(F)cc1)NCc1ccco1	-5.5%	0.2%
Fc1ccccc1N1CCN(c2c3c(nc4nncn24)CCC3)CC1	-27.2%	37.4%[activator]
CCCc1nc2nc(-c3ccc(OC)cc3)cc(=O)n2[nH]1	28.4%	149.5%[activator]
CC(=O)c1ccc(NC(=O)C(C)Sc2nc3nc(C)cc(C)c3c(=O)[nH]2)cc1 (centres undefined)	0.7%	-0.9%
Cc1cc(Br)c(S(=O)(=O)NCCO)cc1C	174.4%[activator]	-0.3%
O=c1[nH]cccc1NS(=O)(=O)c1ccc(F)cc1	-11.5%	-4.7%
CN1CCN(C(=O)C(=O)Nc2c3c(nn2-c2ccc(Cl)cc2)CSC3)CC1	-6.3%	-10.2%
CCN1CCN(c2ncc3c(n2)CCN(Cc2ccc(OC)c(OC)c2)C3)CC1	-14.5%	-15.8%
COCCCNC(=O)CSc1nc2cc(OC)c(OC)cc2c2nc(-c3ccccc3)nn12	-18.1%	-31.9%
Cc1cc(Nc2ccccc2C)n2nc(Cc3ccc(Cl)cc3)nc2n1	0.0%	-12.8%
COC(=O)/C(=C\c1ccc([N+](=O)[O-])cc1)NC(C)=O	10.2%	17.0%
CCc1ccc(NC(=O)c2sc3nc(C)c(Cl)c(C)c3c2NC(=O)c2ccccc2)cc1	-4.4%	30.2%[activator]
CCn1c(C)c(C(C)=O)c2cc(OCC(O)CN3CCN(CCO)CC3)ccc21 (centres undefined)	-3.5%	-0.1%
O=C(NCc1ccccn1)c1cc(F)cc(F)c1	-4.4%	17.5%
CCc1nnc(NC(=O)Cc2c(C)nc(C)[nH]c2=O)s1	8.4%	12.9%
CC(C)c1ccc(/C=C(\C#N)c2nc(-c3ccc(O)cc3)cs2)cc1	-17.6%	57.4%[activator]
COc1ccc(N2C(=O)CN(Cc3ccccc3Cl)[C@H]3CS(=O)(=O)C[C@H]32)cc1	-3.4%	-0.2%
Cc1nc2ccccc2nc1COC(=O)c1ccc2nccnc2c1	-7.4%	2.8%
Nc1nonc1-c1nc2ccccc2n1CC(=O)Nc1cccc(C(F)(F)F)c1	17.3%	15.5%
Cc1cccc(C)c1NC(=O)c1sc(-n2nc(C)c(Cc3ccc4c(c3)OCO4)c2C)nc1C	-9.2%	-8.3%
Cc1ccc(C)c(NC(=O)N2CCC(CN3CCOCC3)CC2)c1	-4.7%	-6.8%
Cc1nc2ccccc2nc1SC(C(=O)O)c1ccccc1 (centres undefined)	19.1%	21.3%
O=C1CSC(c2ccc(F)cc2F)c2cn[nH]c2N1 (centres undefined)	10.3%	0.0%

Record cards, as listed above:
CC(c1ccc(Cl)cc1Cl)N(C)Cc1nc2ccccc2o1 (centres undefined) is entered as StopGo RLuc = 26.6%; 2A firefly = 73.6%[activator]
O=C(Nc1ccc(F)c(F)c1)c1cc(S(=O)(=O)NCc2ccc3c(c2)OCO3)ccc1F is entered as StopGo RLuc = 24.4%; 2A firefly = -16.4%
COC(=O)/C(=C\c1ccc([N+](=O)[O-])cc1)NC(C)=O is entered as StopGo RLuc = 10.2%; 2A firefly = 17.0%

(more compounds)
SMILES	StopGo RLuc	2A firefly
Cc1ccc(NC(=O)CSc2nc(-c3cccs3)nc3cc(=O)[nH]n23)cc1C	-5.8%	-10.1%
COc1ccc(C=O)cc1COc1ccc(C#N)cc1	3.8%	-3.5%
CCCN(CCC)C(=O)Cn1c(=O)n(-c2ccc(C)c(C)c2)c(=O)c2c3c(sc21)CCCCC3	-3.9%	-12.3%
Cc1cc(=O)[nH]c2nnc(SCc3cccc(F)c3)n12	8.0%	-11.3%
CC(C)CNC(=O)NC(=O)CSc1nnc(COc2ccccc2Cl)o1	-12.6%	-8.9%
c1cn(CCCNCC2CCCCC2)cn1	-0.4%	-8.7%
Cc1ccc(NC(=O)CSc2nc3c(oc4ccccc43)c(=O)n2Cc2ccco2)cc1	-3.7%	-13.3%
CCCn1c(CCC(=O)Nc2ccc(OCC)cc2)nc2cccnc21	0.8%	-11.3%
CCOC(=O)N1CCN(C(=O)CN(c2ccccc2Cl)S(C)(=O)=O)CC1	-2.3%	1.3%
CCOC(=O)c1cnc2ccc(C(=O)OC)cc2c1Nc1cc(C)ccc1OC	-3.2%	-7.9%
Cc1ccc(-c2cc(C(=O)O)c3cc(Br)ccc3n2)o1	-10.7%	48.2%[activator]
O=C(O)CC/C(=C/c1ccc2ccccc2c1)c1nc2ccccc2s1	-8.9%[1.06 µM]	54.5%[activator]
Cc1cc(=O)oc2cc(OC(C)C(=O)NCc3ccncc3)ccc12 (centres undefined)	29.1%	58.6%[activator]
COC(=O)Cc1c(C)c2ccc(OCc3ccccc3F)c(C)c2oc1=O	15.5%	173.1%[activator]
O=C(CSc1nc(C2CC2)n(-c2ccccc2)n1)N1CCN(c2ccc(O)cc2)CC1	0.0%	0.0%
COc1ccc(C2=NC(C)(C)N(CC(=O)Nc3ccc(F)c(F)c3)C2=O)cc1	14.1%	45.1%[activator]
Cc1ccc(-c2cc(C(=O)OCc3ccc(-c4ccccc4)cc3)c3ccccc3n2)cc1	-4.4%	-0.1%
CCc1ccc(S(=O)(=O)N(C(=O)Oc2ccccc2)c2ccc3oc(C)c(C(=O)OC)c3c2)cc1	-10.2%	-14.4%
COc1ccc(Cl)cc1NC(=O)CN(C)S(=O)(=O)c1ccc2c(c1)CCCN2C(C)=O	?	?
Cc1ccccc1NC(=O)CCc1c(C)nc2c(c1C)c(=O)n(C)c(=O)n2C	-14.9%	-27.1%
CCc1ccc2oc(C(=O)NCC(c3ccco3)N3CCOCC3)cc(=O)c2c1 (centres undefined)	-5.5%	-6.8%
CCOc1cc(CNCCSc2nnnn2C)cc(Cl)c1OCc1ccc(Cl)cc1	?	-34.0%
Cc1ccccc1N(C)S(=O)(=O)c1nnc(NC(=O)C(C)C)s1	-1.7%	-12.9%
COCCCNC(=O)CSc1nc(-c2ccc(OC)cc2)[nH]c1-c1ccc(OC)cc1	35.9%[activator]	18.6%
NNc1nnc(NN)c2ccccc12	-7.4%	7.8%

(further entries)
SMILES	StopGo RLuc	2A firefly
Cc1cc(=O)c(C(=O)Nc2nnc(C3CC3)s2)nn1-c1ccccc1Cl	-7.3%	4.0%
NCC(O)C(F)(F)F (centres undefined)	1.7%	5.9%
CC(C)(C)OC(=O)N1CCC(c2c(C(=O)NC3CCN(Cc4ccccc4)CC3)cnn2-c2ccc(F)cc2F)CC1	-6.6%	-16.1%
CC(C)N(CCNC(=O)C(c1ccccc1)c1ccccc1)C(C)C	-13.9%	-10.6%
Cc1ccc(CNc2ncnc3c2c(-c2ccccc2)cn3-c2ccccc2)cc1	-12.0%	-15.5%
CCOc1cc(CN2CCCC2c2ccc(F)cc2)ccc1OCC(N)=O (centres undefined)	-18.8%	-14.4%
CCc1ccccc1NS(=O)(=O)c1ccc(-c2coc(C)n2)cc1	60.5%[activator]	26.9%
COc1ccc(CCNC(=O)c2cnc3sc(N4CCC(C)CC4)nn3c2=O)cc1OC	-6.4%	-9.4%
O=C(NCC1(c2ccccc2)CCC1)c1n[nH]c(=O)c2ccccc12	1.3%	12.2%
Cc1ccc(C(=O)c2ccccc2C(=O)OCC(=O)c2cccs2)cc1C	204.4%[activator]	14.9%
CC(C)c1ccc(NC(=O)Cn2cc(S(=O)(=O)Cc3ccccc3Cl)c3ccccc32)cc1	56.2%[activator]	-1.1%
Cc1ccc2cc(COC(=O)c3ccco3)c(=O)[nH]c2c1	-10.2%	8.0%
Cc1ccc2c(c1)c(=O)c1ccccc1n2CCCC(=O)Nc1ccc(Cl)cc1C	-4.8%	-14.7%
O=c1cc(-c2ccccc2)n2c(SCc3ccc([N+](=O)[O-])cc3)nnc2[nH]1	-1.6%	-22.2%
Cc1c(-c2ccccc2)oc2c(C(=O)OCCN3CCCCC3)cccc2c1=O	-16.9%	-5.4%
Cc1nc2ccccc2c(C)c1CC(=O)NC1CCCCCC1	-11.0%	7.4%
CNC(=O)c1cccc(NC(=O)c2cccc3cccnc23)c1	8.9%	59.4%[activator]
NC(=O)c1ccc(NC(=O)C(F)(OC(F)(F)C(F)(F)C(F)(F)F)C(F)(F)F)cc1 (centres undefined)	3.1%	15.5%
Cc1cc(Nc2ccc(C)c(C)c2)n2cnnc2n1	7.1%	10.2%
Nc1[nH]c(/C=C2/CCCCC2n2[nH]c(=O)n(-c3ccccc3)c2=O)c(Cc2ccccc2)[n+]1Cc1ccccc1 (centres undefined)	21.9%	28.5%
Cn1c(COc2ccc(Cl)cc2)nnc1SCC(=O)c1ccc[nH]1	15.8%	-3.6%
O=C(CSc1nc(-c2ccc(F)cc2)[nH]c1-c1ccccc1)NCC1CCCO1 (centres undefined)	50.3%[activator]	29.5%
O=C(NC(Cc1ccccc1)C(=O)N1CCN(c2ncccn2)CC1)c1ccco1 (centres undefined)	11.6%	-8.5%
COc1ccc(-n2cc(C(=O)OCc3ccc(F)c(F)c3)c3ccccc3c2=O)cc1	-19.0%	-12.4%
COc1cc(OC)c(NC(=O)Nc2cccc(OCc3cc(=O)n4ccccc4n3)c2)cc1Cl	19.0%	88.3%[activator]
O=C(CCNS(=O)(=O)c1ccc2c(c1)CCN2C(=O)C1CC1)N1CCN(c2ccccc2F)CC1	-4.0%	-25.8%
Cc1ccc(COC(=O)c2[nH]c3c(c2C)C(=O)CC(c2ccc(N(C)C)cc2)C3)cc1 (centres undefined)	-6.7%	-9.1%
CC(=O)c1c(C)[nH]c(C(=O)C(C)Sc2ccc(C(F)(F)F)cn2)c1C (centres undefined)	-2.0%[1.06 µM]	?
Cc1ccc(C)c(NC(=O)c2cc(S(=O)(=O)N3CCN(c4cccc(Cl)c4)CC3)ccc2F)c1	116.1%[activator]	-11.3%
Cc1ccc(C(=O)OCC(=O)OC2CC(C)CCC2C(C)C)s1 (centres undefined)	3.9%	7.2%
